Screening data deposited in PubChem BioAssay by several laboratories.
PrP UTR inh: inhibition of PrP 5' UTR reporter expression. cell-based PrP 5' UTR mRNA reporter, plate reader. inhibition, % (concentration not given with the values). hit rate 0.35% among 340,000. AID 488862, 2010;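 active means every replicate at 50% or more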;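 further: 0 = median of the neutral control wells; tested in H4 reporter cells; numbers are from one replicate; inactives centre near -14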
Mtb hypoxia rep: PubChem AID 1159583; M. tuberculosis hypoxia-regulated fluorescent reporter, fluorescence; fluorescence inhibition, % (concentration not given with the values); hit rate 0.1% among 300,000;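 active means 35 to 45% if threefold the growth effect, above 45% if 1.5-fold the growth effect; inactive means the rest, general growth blockers included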;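 further: wells of about 50 µL received 100 nL stock; 0% = vehicle wells and 100% = reference inhibitor wells; whole bacteria with a GFP reporter of the hypoxia response; strong numbers were not always called active; many hits fall short of the cut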
Sa ugtP lethal: growth inhibition of ugtP-null S. aureus, primary screen, RN4220 ugtP deletion, OD600 | growth inhibition, % (test concentration not listed) | 16 h; some inactives read as strong as hits | hit rate 0.54% among 330,000 | AID 1259309, 2017;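 active means z-score under -3 and OD600 up to 0.15 on both plates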;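 further: plate controls were untreated wells for no effect and antibiotic for full effect; wells of about 80 µL received 100 nL stock; the first replicate is given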
Bead autofluor: counter-screen for toxin protease inhibitors: compound fluorescence. compound autofluorescence counterscreen, microsphere flow cytometry; active compounds read high. fluorescence intensity (concentration not given with the values). hit rate 3.1% among 360,000. AID 624483;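 active means at least 3 SD above the mean of all compounds, about 16000 in these data; inconclusive means too few beads counted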;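 further: 100 nL of 1 mM stock went into each well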
BJeLR viability: MLPCN primary cell-based screen for lethality selective to Ras in HRASV12 cells; BJeLR (HRASV12) viability, CellTiter-Glo ATP luminescence, 48 h; reference of the scale not given here; inhibition, % (test concentration not listed); hit rate 0.17% among 300,000; AID 1554, 2009;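 active means replicate mean above 50%; inconclusive means above 50% but judged a plate artefact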;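 further: 50 nL library stock added to about 25 µL; numbers are from one replicate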
Sa RN4220 lethal: growth inhibition of S. aureus RN4220, primary screen, OD600. hit rate 0.33% among 330,000. inhibition, % (no concentration beside the values). 16 h;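 active means z-score of -3 or lower and OD600 up to 0.18 on both plates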;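 further: plate controls were untreated cells for no effect and reference antibiotic for full effect; stock transfer was 100 nL into about 80 µL; one replicate is shown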
Mtb hypoxia rep growth: also measured in Mtb hypoxia rep; calls as there; growth inhibition, %; measured here: M. tuberculosis growth (absorbance);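 0% = vehicle and 100% = reference antibiotic; read after six days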
An asterisk follows results filed as active; ? = inconclusive; . = not tested or not shown. Compounds were not picked by outcome, and some 4% of all compounds hit somewhere here.

SMILES	PrP UTR inh	Mtb hypoxia rep	Mtb hypoxia rep growth	Sa ugtP lethal	Bead autofluor	BJeLR viability	Sa RN4220 lethal
Oc1oc(-c2ccccc2)nc1C=Nc1nccs1	.	11	6	-3	.	.	4.6
Cc1cc(C)c(S(=O)(=O)NCCn2c(C)cc3ccccc32)c(C)c1	-1	5	5	-12	2507	-3	-3.1
O=S(=O)(Nc1ccc(NS(=O)(=O)c2ccccc2)c(Cl)c1)c1ccccc1	-5	8	6	-12	3677	.	4.0
C=CC(=O)Nc1ccc(N(C)c2ccnc(Nc3ccc(N4CCN(C)CC4)cc3)n2)cc1	46	6	-6	2	2818	.	5.5
CCS(=O)(=O)N1CCCC(C(=O)NC2CCCCC2C)C1 (stereo not drawn)	-11	8	6	-6	2442	-9	2.5
Oc1cc(NCCc2cccnc2)cc2cccnc12	-11	-2	-5	-2	3459	.	15
COc1ccc(OC)c(C(c2nnnn2CCc2ccccc2)N2CCC(C(N)=O)CC2)c1 (stereo not drawn)	-41	.	.	5	4282	9	-1.6
COCCNC(=O)C(c1ccc(F)cc1)N(C(=O)CCC(=O)Nc1nccs1)c1ccc(C)cc1 (stereo not drawn)	-1	4	0	5	1956	10	4.6
Cc1ccc2ccccc2c1NC(=O)c1ccco1	-3	10	1	10	3903	3	5.6
Clc1ccc(Nc2nc(-c3cccnc3)cs2)cc1	-65	8	2	-3	2531	6	-2.5
O=C(NCC1CCCO1)C(C(=O)c1ccccc1)n1ccccc1=O (stereo not drawn)	-33	18	9	11	6274	4	7.2
C(=N\N1CCN(Cc2cccc3ccccc23)CC1)/c1ccco1	-32	.	.	.	3254	-8	.
CCCC(=NNC(=O)C1CC1)c1ccccc1	.	10	11	7	.	.	5.4
COc1ccc(-c2c(C)c3cc(O)ccc3oc2=O)cc1OC	-12	9	1	-1	4895	-5	4.8
COc1ccccc1C1/C(=C(\O)c2ccc3c(c2)OCCO3)C(=O)C(=O)N1Cc1cccnc1 (stereo not drawn)	-24	2	-5	10	4310	-3	3.7
Cc1ccc(NC(=O)CC2=NC(=O)C(CC(=O)Nc3ccccc3C)S2)cc1 (stereo not drawn)	-24	1	-5	-10	4954	0	-8.3
COC(=O)c1cc(=O)n2c(-c3ccccc3)csc2n1	-8	.	.	5	3195	-3	1.4
CC1Cc2cc(S(=O)(=O)N3CCC(C(=O)N4CCCCC4)CC3)ccc2N1C(=O)C1CC1 (stereo not drawn)	-8	6	1	11	5262	3	7.9
CCOc1ccc(C(=O)NCC2CCCN2S(=O)(=O)c2cccs2)cc1 (stereo not drawn)	-19	5	6	3	6665	4	-0.7
O=C(Nc1ccccn1)C1(c2cccs2)CCOCC1	-8	12	1	13	7385	8	5.3
CCC(C)(C(=O)NC1CCCCC1)N(Cc1cccs1)C(=O)Cc1cccs1 (stereo not drawn)	-22	5	10	-6	9314	-2	3.0
O=C(Cc1ccc(F)cc1)N/N=C/c1ccccn1	-18	.	.	.	2164	3	.
COc1ccc(C(=O)Nc2ccncc2)cc1S(=O)(=O)N1CCOCC1	-14	-3	0	-4	4406	.	3.1
CN(C)c1ccc(-c2noc(C3CCN(S(=O)(=O)c4ccc(C(=O)O)cc4)CC3)n2)cc1	-16	15	12	9	22586*	-2	13
CC(=O)c1ccc(NC(=O)CN2C(=O)NC(C)(C3CCCCC3)C2=O)cc1 (stereo not drawn)	-24	19	8	1	3957	.	4.6
CCOC(=O)Cc1[nH]nc2c1C(c1cccc(OC)c1OC)C(C#N)=C(N)O2 (stereo not drawn)	-19	.	.	0	4690	6	1.7
Cc1cn2c(nc(=O)c3cccnc32)s1	-81	-3	-8	2	1971	7	5.7
CCN1CCN(CCCNC(=O)CNC(=O)c2nn(-c3ccc(OC)cc3OC)c(=O)c3ccccc23)CC1	-19	1	5	12	3429	-2	3.1
O=C(Nc1ccc(OC(F)F)cc1)Nc1cccc(C(F)(F)F)c1	-15	-1	0	90*	20493*	6	82
Cc1nn(C(=O)c2nn(C)cc2[N+](=O)[O-])c(C)c1Br	-15	11	4	12	4548	1	6.7

No new results follow: 3 of the compounds above.
SMILES	PrP UTR inh	Mtb hypoxia rep	Mtb hypoxia rep growth	Sa ugtP lethal	Bead autofluor	BJeLR viability	Sa RN4220 lethal
CCN1CCN(CCCNC(=O)CNC(=O)c2nn(-c3ccc(OC)cc3OC)c(=O)c3ccccc23)CC1	-19	1	5	12	3429	-2	3.1
O=C(Nc1ccc(OC(F)F)cc1)Nc1cccc(C(F)(F)F)c1	-15	-1	0	90*	20493*	6	82
Cc1nn(C(=O)c2nn(C)cc2[N+](=O)[O-])c(C)c1Br	-15	11	4	12	4548	1	6.7

The listing continues:
SMILES	PrP UTR inh	Mtb hypoxia rep	Mtb hypoxia rep growth	Sa ugtP lethal	Bead autofluor	BJeLR viability	Sa RN4220 lethal
CC(C)(C)c1ccc(NC(=O)COc2ccc(-n3ccnc3)cc2)cc1	16	.	.	-6	2370	14	-5.3
COc1ccc(CCNC(=O)c2cc(-c3ccccc3O)n[nH]2)cc1OC	-23	0	10	-15	10181	-5	7.2
Cc1cccnc1NC(=O)CCc1c[nH]c2ccccc12	-18	-3	1	3	4050	4	0.7
Cc1ccc(C(=O)Nc2ccc(F)cc2)o1	-8	0	5	6	2093	2	6.4
O=C(CSc1nnc(-c2ccncc2)n1CC1CCCO1)Nc1cccc(O)c1 (stereo not drawn)	-28	-3	-1	-4	22751*	-11	-1.7
COc1cc(/C=C/C(=O)OCC(=O)c2c(N)n(C)c(=O)n(C)c2=O)ccc1OCC#N	-31	10	-2	4	3924	-14	7.6
FC(F)Oc1ccccc1/C=N/Nc1nc2ccccc2o1	-51	.	.	.	4136	-9	.
COc1ccc(NS(=O)(=O)c2cc(NC(=O)c3ccc(=O)[nH]n3)ccc2C)cc1	-19	13	2	7	3756	.	5.7
Cc1cc(C)n(Cc2ccc(NC(=O)c3ccc(COc4ccccc4Br)cc3)cc2)n1	.	-3	11	-22	12331	-1	2.4
CCOc1ccc(NC(=O)CSc2nnc(C(C)C)n2CC)cc1	-23	.	.	7	4559	9	-1.3
Cc1ccc(S(=O)(=O)N(C)CCCC(=O)N2CCOCC2)cc1	-12	8	11	3	2898	-13	4.1
O=C(CN(Cc1ccco1)S(=O)(=O)c1ccccc1)N/N=C/c1cccc(O)c1	-19	.	.	.	3636	-9	.
Cc1ccc(C)c(OCCn2cc(/C=C(/C#N)C(=O)NCC3CCCO3)c3ccccc32)c1 (stereo not drawn)	-6	-10	8	-42	3023	-8	-3.2
Fc1ccc(C(c2nnnn2Cc2cccs2)N2CCN(C3CCCC3)CC2)cc1 (stereo not drawn)	-19	9	11	6	2822	-3	2.8
CCCCNC(=O)CNC(=S)N(CCCN1CCOCC1)Cc1cccs1	-22	8	5	1	7214	15	0.5
O=C(COc1ccc(Br)cc1)Nc1ccccc1N1CCCC1	-20	0	12	3	2471	-5	4.4
CCOc1ccc(C(=O)Nc2ccccc2NC(C)=O)cc1OCC	-21	-6	2	1	4441	-4	1.2
COc1ccc(OC)c(/C=C2\S/C(=N/NC(=O)c3ccc4ccccc4c3)NC2=O)c1	-10	.	.	.	2558	3	.
CCN(C(C)=O)c1nnc(CSc2nc3ccccc3s2)s1	-18	7	10	-5	9724	5	3.6
Cn1nc(C(=O)NCc2ccccc2)c2c1-c1ccccc1S(=O)(=O)C2	-14	7	-2	14	5683	7	-0.4
CC(C)C(NC(=O)c1ccccc1Br)c1ccccc1 (stereo not drawn)	-5	13	-3	20	3447	5	11
CCN(CC)CCN(C(=O)CCS(=O)(=O)c1ccccc1)c1nc2cc3c(cc2s1)OCO3	-5	7	0	-4	6183	15	3.9
Cc1ccc(C(=O)N2CCCC(N3CCN(c4ccccc4C)CC3)C2)c(=O)[nH]1 (stereo not drawn)	-17	3	-2	8	4863	3	5.5
CC(=O)Nc1ccc(SCC(=O)Nc2cc(C(C)(C)C)nn2-c2ccccc2)cc1	-39	-1	-2	1	2651	12	2.4
CCn1c(Oc2ccccc2)nc2c1c(=O)n(C)c(=O)n2C	-5	-5	4	3	3725	18	1.2
O=C(NCCCN1CCCCC1)c1ccc2c(c1)NC(=O)c1ccccc1S2	-15	17	4	2	6181	1	1.3
CC(C)Cc1[nH]c(=O)c(C#N)c2c1COC(C)(C)C2	-8	13	2	6	3752	2	2.1
O=C(CN1CCN(c2ccccc2F)CC1)NC(=O)NCc1ccco1	-37	-4	-6	0	4538	-8	0.5
C=CCOc1ccccc1C=NNC(=O)Cc1ccc(C)cc1	.	6	8	4	.	.	4.8
Nc1nc(SCC(=O)N2N=C3/C(=C/c4ccco4)CCCC3C2c2ccco2)n[nH]1 (stereo not drawn)	1	.	.	1	5616	-6	2.3

Brought forward from above: two entries, then new ones.
SMILES	PrP UTR inh	Mtb hypoxia rep	Mtb hypoxia rep growth	Sa ugtP lethal	Bead autofluor	BJeLR viability	Sa RN4220 lethal
C=CCOc1ccccc1C=NNC(=O)Cc1ccc(C)cc1	.	6	8	4	.	.	4.8
Nc1nc(SCC(=O)N2N=C3/C(=C/c4ccco4)CCCC3C2c2ccco2)n[nH]1 (stereo not drawn)	1	.	.	1	5616	-6	2.3
CCOC(=O)N1CCN(C(=O)COC(=O)c2cccc(C)c2[N+](=O)[O-])CC1	-21	4	-2	6	2934	.	4.5
CN(C(=O)C1CCN(S(=O)(=O)c2cccs2)CC1)C1CCCCC1	-91	4	3	5	10076	2	0.7
CN1CCN(C(=O)c2cc3sccc3n2CC(=O)c2ccccc2)CC1	-52	12	11	4	10702	-2	0.5
CCn1c(CSc2nc3ccccc3[nH]2)nc2cc(C(=O)O)ccc21	4	14	10	6	6654	-11	1.4
O=C(c1cc(Br)c(Br)s1)N1CCN(c2ccccn2)CC1	-17	-5	9	-7	5402	7	-1.8
CCCCN1C(=O)C(=O)N(CC(=O)Nc2ccc(OC(F)(F)F)cc2)C1=O	-7	4	8	4	4081	.	-0.8
COc1ccc(NC(=O)Cc2ccc(Cl)cc2Cl)cn1	-15	5	-5	4	3365	4	7.1
CC(C(=O)O)n1nc2ccccc2n1 (stereo not drawn)	-21	-5	1	-6	2811	0	-3.1
CCOC(=O)CSc1nnc(-c2ccccc2)o1	-23	-2	1	-2	2921	-5	4.4
Cc1cc(C(=O)COC(=O)c2ccc(O)cc2O)c(C)n1C(C)C	.	15	8	5	5430	.	5.5
Cc1ccc(-c2csc(NC(=O)C3CSC4(C)CCC(=O)N34)n2)cc1 (stereo not drawn)	-20	.	.	.	?	-11	.
CCn1ncc(Br)c1C(=O)Nc1cccc(C(C)=O)c1	6	-5	7	5	3998	4	-1.4
Cc1ccc(C(=O)C2CC2)c(C)c1	-9	-1	2	2	4036	.	2.8
Cc1ccc(NC(=O)CS(=O)CC(=O)NC23CC4CC(CC(C4)C2)C3)cc1 (stereo not drawn)	-8	5	3	1	6399	-14	3.9
COc1cc(NC(=O)C2CCCN(c3ncccn3)C2)cc(OC)c1 (stereo not drawn)	-9	7	10	1	9578	-1	1.0
O=C(NCCc1ccccc1)C(=S)N1CCCCC1	-10	-8	2	5	4347	9	10
CN(C(=O)COC(=O)c1cc[n+]([O-])cc1)c1ccccc1	6	2	5	1	6070	-10	1.2
COCCN1C(=O)NC(c2cccc(F)c2)C(C(C)=O)=C1C (stereo not drawn)	.	15	9	11	.	.	6.5
CN(C)CCn1cnc2c1c(=O)n(C)c(=O)n2C	6	-4	-4	-2	5423	4	-0.5
CCC(C)NC(=O)CS(=O)Cc1nc(-c2cccc(OC)c2)oc1C (stereo not drawn)	-10	-1	-2	-1	5564	7	6.0
CC(=O)c1c(C)[nH]c(C(=O)NCc2ccccc2Cl)c1C	-24	2	-1	0	?	8	9.5
Cc1c(Cl)c(=O)oc2cc(OC(C)C)ccc12	-10	.	.	.	10515	9	.
Cc1ccc(NCc2n[nH]c(=S)n2-c2ccccc2)cc1Cl	-4	5	9	-2	4582	3	0.6
CCCCCCCCN1[C@@H](CC(=O)OCC)c2ccc(C(F)(F)F)cc2S1(=O)=O	-23	.	.	.	3676	-10	.
CCn1nnnc1NC(=O)c1cccc(OC)c1	-47	-2	-5	4	3989	-2	5.7
COCc1c(C(=O)OCC(=O)NCCN2C(=O)CSC2=O)oc2ccccc12	-9	14	-1	3	2021	3	0.7
Cc1cccc(OCC(=O)NCCCNC(=O)c2ccncc2)c1	-11	13	2	6	5299	8	1.6
CC(=O)Nc1cccc(NC(=O)CCCC2CCCCC2)c1	-11	-3	2	-1	5187	-8	-3.6
